# Source: PubChem BioAssay
# HIV Env fusion – HIV envelope-mediated fusion inhibition; inhibition, % at 12.3 µM; HeLa-JRFL Env/CEM21 cell fusion, luciferase; actives 1.1% (n = 360,000);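 active = mean replicate inhibition score of at least 50 and every replicate individually at or above 50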;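 note: 0% = plate neutral controls and 100% = maraviroc near 300 nM; one replicate is shown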
# CSC inhib – cancer stem cell inhibition; AID 2717; inhibition, % at 7.5 µM; actives 1.1% (n = 300,000); cancer stem cell-like cells viability, luminescence;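 active = mean at 75% or more and at least half the replicates too; tested in HMLE shEcad cells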;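 note: 0% = median of negative and 100% = median of positive control wells; the first replicate is given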
# UUG fidelity – yeast start codon fidelity modulation | S. cerevisiae UUG-firefly luciferase reporter, luminescence/redox ratio | activity score, % at 18.7 µM | actives 0.13% (n = 350,000) | AID 602363;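 active = replicate mean at a twofold rise or more, about +100% in these data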;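 note: firefly luciferase made from a UUG start codon reports start codon fidelity; reporter light over untreated wells divided by growth signal over untreated wells; some hits fall short of that in this replicate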
# PABP polyA inh – PABP-poly(A) binding inhibition; P11940; PABP-poly(A) RNA binding, fluorescence polarization; inhibition, % at 35 µM; actives 1% (n = 290,000);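 active = 50% or more with normal probe brightness, or confirmed in later tests; about a fifth of its hits are not listed in these tables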;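 note: calls also rest on retests at 20 µM and on dose response follow-up; controls were probe without protein and protein plus probe with vehicle; some compounds called inactive have numbers as strong as hits; many hits fall short of the cut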
# eIF4H inh – inhibitors of RNA binding by human eIF4H. Q15056. eIF4H fluorescence polarization binding assay. inhibition, % at 35 µM. actives 0.94% (n = 290,000). AID 2012;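 active = 50% or more with normal probe brightness, or confirmed in later tests; about a fifth of its hits are not listed in these tables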;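 note: calls also rest on retests at 20 µM and on dose response follow-up; 0% = protein and probe with vehicle and 100% = probe without protein; strong numbers were not always called active; many hits fall short of the cut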
# MT1-MMP act inh – MT1-MMP (human) activation inhibition; P50281; HT1080 RFP-PRO-GFP cells, GFP/RFP ratio fluorescence, overnight; percent of plate control window, DMSO zero; GFP/RFP ratio change, % at 20 µM; actives 0.061% (n = 360,000); AID 651647;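 active = GFP/RFP ratio change of at least 30% with cell ATP level not reduced by more than half and red fluorescence within 50% of control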; note: strong numbers were not always called active
#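 Assay system: RFP-PRO-GFP reporter HT1080 cells; read-out basis: GFP/RFP fluorescence ratio; benchmarks: DMSO wells and RFP-L50D-GFP cells; doses: 20 µM single dose, 1% DMSO; schedule: overnight cell settling, then overnight compound exposure, 37 °C, 5% CO2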
# Rce1 inhib – inhibitors of yeast Ras-converting enzyme | actives 0.27% (n = 290,000) | Q03530 | calls only | AID 2563 | yeast membranes, quenched prenylated peptide cleavage fluorescence;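 active = fall in fluorescence gain of 50% or more versus controls, with final raw signal at or below 3038400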;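 note: plate controls were neutral control wells for no effect and wells lacking membranes for full effect; tested at 10 µM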
# Target sequence (Q03530 whole entry, looked up): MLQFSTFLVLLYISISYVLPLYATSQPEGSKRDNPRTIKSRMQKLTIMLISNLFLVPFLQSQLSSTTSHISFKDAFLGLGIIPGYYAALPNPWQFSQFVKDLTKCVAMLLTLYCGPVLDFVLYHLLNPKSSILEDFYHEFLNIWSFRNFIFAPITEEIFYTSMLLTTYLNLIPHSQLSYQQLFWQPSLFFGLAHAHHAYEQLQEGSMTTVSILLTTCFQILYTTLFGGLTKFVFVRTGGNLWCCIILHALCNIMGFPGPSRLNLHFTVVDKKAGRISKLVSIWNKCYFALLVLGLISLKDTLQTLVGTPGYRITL
# MT1-MMP act inh RFP – second read-out of MT1-MMP act inh, no call of its own (marks repeat the call); RFP signal change, %; measured here: RFP expression control read;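 0 = vehicle wells; hits needed this value within 50% of zero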
# Active calls of the source: *; i = inactive; . = no result given. A portion of the library; rates above refer to the full screens.
SMILES,HIV Env fusion,CSC inhib,UUG fidelity,PABP polyA inh,eIF4H inh,MT1-MMP act inh,MT1-MMP act inh RFP,Rce1 inhib
COc1cc(SC)ccc1C(=O)OC(C)C(=O)NC1CCCC1 (stereo not given),-11.8,.,.,17.8,2.6,-1.2,-1.6,.
CCOC(=O)c1cccc(NC(=O)CN2CCN(c3ccc(OC)cc3)CC2)c1,12.3,-4.6,-10.5,-5.5,-4.4,2.5,2.4,i
COc1ccc(S(=O)(=O)N2CCCCC2)cc1NC(=O)CCNC(=O)c1ccco1,-66.0,.,-20.0,.,.,-1.5,-0.1,.
Cc1cc(N2C(=O)C(=O)/C(=C(/O)c3ccc(F)cc3)C2c2ccc(F)cc2)no1 (stereo not given),.,-7.7,-7.0,-8.3,1.1,3.9,2.3,i
Cc1ccc2c(c1)C(C)CC(C)(C)N2C(=O)NC1CCCCC1 (stereo not given),.,-7.4,-0.8,-15.5,-12.5,-2.9,2.3,i
Cc1ccc(S(=O)(=O)NC2=NCN(C3CCCCC3)CN2)cc1,-29.0,-9.0,-0.2,-5.0,-7.7,10.3,0.1,i
Cc1ccc(NC(=O)CN(C)C(=O)CSc2nc3ccccc3c(=O)n2Cc2ccco2)cc1,.,11.9,.,-5.8,-11.8,-2.4,-5.4,i
C/C(=N\NC(=O)C(N)=O)c1ccc(OC(F)F)cc1,2.9,4.8,.,-31.1,-8.3,2.1,5.4,i
O=C(CSc1nnc(NC(=O)c2ccccc2F)s1)NCc1ccco1,-31.7,16.1,-4.8,11.0,3.8,-0.6,0.6,i
CCOc1ccc(C2OC(=O)Cc3cc(OC)c(OC)cc32)cc1 (stereo not given),.,-13.2,-11.1,-13.1,-5.6,1.2,-7.9,i
COc1ccc(CCN2C(=O)C(O)=C(C(C)=O)C2c2ccccc2OC)cc1OC (stereo not given),.,.,-22.3,16.8,-11.3,1.1,1.6,i
COC(=O)c1ccc(OC)c(Cn2c(=O)n(C)c(=O)c3sccc32)c1,.,-5.6,-17.3,7.7,1.1,3.7,0.4,i
Cc1cc(C)c(S(=O)(=O)N2CCN(C(=O)CC(C)n3nc(C)nc3C)CC2)c(C)c1 (stereo not given),-15.0,.,10.1,.,.,4.0,0.8,.
COC(=O)c1cc(S(=O)(=O)NCc2cccs2)c[nH]1,-3.1,1.1,-22.3,-14.8,1.9,3.7,2.2,i
CSCCC(Nc1ccc(S(=O)(=O)N2CCOCC2)cc1[N+](=O)[O-])C(=O)OCC(=O)NCC(C)C (stereo not given),.,-7.6,.,1.8,-7.0,2.1,1.7,i
COCCN(C(=O)CSc1nnc(-c2ccc(C)cc2)n1N)c1c(N)n(Cc2ccccc2)c(=O)[nH]c1=O,-21.5,9.4,-12.4,22.7,-2.5,-1.3,-3.4,.
CN(NS(=O)(=O)c1ccc(Br)cc1)c1nc(C(F)(F)F)nc2ccccc12,4.7,63.2,-3.0,11.2,-2.2,0.5,-11.8,.
Cc1ccc(NC(=O)NNC(=O)c2cc3ccccc3cc2O)c(C)c1,-28.6,-1.3,-3.8,-13.6,5.9,-6.0,3.0,i
CCOC(=O)CC(=O)Nc1ccc(Br)cc1C(=O)O,.,-4.6,-14.5,16.8,-1.6,8.6,6.3,i
COc1ccc(Cl)cc1NC(=O)CCN1C(=O)C2C3C=CC(C4CC34)C2C1=O (stereo not given),.,-10.9,8.8,-15.5,-0.9,0.3,-2.0,i
CN(C)S(=O)(=O)c1cccc(C(=O)NC2CCCc3ccccc32)c1 (stereo not given),.,-8.8,-18.2,-9.0,1.5,4.7,0.4,i
COc1cccc(C2C3=C(N=C4SCC(=O)N42)c2ccccc2CC3)c1OC (stereo not given),.,1.7,.,-6.1,-1.8,-6.3,3.1,.
CCOC(=O)[C@@H]1[C@H]2COc3cc(OC)ccc3[C@@H]2N2C(=O)N(c3ccc(OC)cc3)C(=O)[C@@]12C,-7.7,-14.6,-5.0,.,.,-1.0,1.2,.
O=S(=O)(Nc1ccccc1Br)c1cccc2cccnc12,-24.1,.,-22.8,.,.,-2.1,-5.2,.
CC(=O)NC1(c2nnnn2CCOC(=O)Nc2ccc(Cl)cc2)CCCCC1,.,6.7,19.9,-10.8,-8.8,2.9,-2.4,i
COc1ccc(N2C(=O)C3CCCN3C2c2ccccc2OC)cc1 (stereo not given),-0.5,-6.7,3.9,-11.6,-4.3,0.9,5.4,i
CC(=O)Nc1ccccc1C(=O)C(=O)Nc1ccc(C)c(C)c1,-44.4,-5.3,-5.8,-2.5,0.1,3.9,-0.9,i
COc1cccc(OC)c1C(=O)N[C@@H]1C(=O)N2[C@@H]1SC(C)(C)[C@@H]2C(=O)O,-0.5,.,-6.2,.,.,1.3,3.6,.
CCC(=O)N1N=C(c2ccc(C)cc2)CC1c1ccco1 (stereo not given),3.0,-8.8,.,0.7,-9.2,-0.1,1.3,.
COc1ccc(OC)c(NC(=O)CC2SC(=NCc3ccccc3)NC2=O)c1 (stereo not given),-12.6,-6.4,.,3.5,-3.5,5.7,1.1,i
O=[N+]([O-])c1ccc(N=Nc2ncc[nH]2)cc1,-204.4,80.8*,-6.4,-10.0,-1.8,-17.4,7.3,i
Cc1cc(NCCCn2ccnc2)n2c(nc3ccccc32)c1C#N,-30.0,3.0,-21.2,17.9,27.2,2.0,-0.6,i
O=C(CCc1nc2ccccc2c(=O)[nH]1)N1CCN(c2ccccc2Cl)CC1,1.4,-19.1,-18.6,.,.,3.3,-1.4,.
COc1cccc(NC(=O)C(NCCc2ccc(S(N)(=O)=O)cc2)c2ccccc2)c1 (stereo not given),4.9,3.0,-13.0,0.5,-7.3,-5.0,-4.2,.
CCNC(=O)CC1C(=O)N(c2ccc(F)cc2)C(=O)N1CCC(C)C (stereo not given),-67.3,-7.0,-4.6,-1.7,-2.3,1.4,2.1,i
CCNC(=O)C1CCCN1S(=O)(=O)c1ccc2ccccc2c1 (stereo not given),-8.5,0.3,1.1,-5.0,-1.7,-2.4,-1.0,i
Cc1ccc(S(=O)(=O)N(C)c2ccc(OCC(=O)Nc3nc4c(ccc5ccccc54)s3)cc2)cc1,-3.0,16.5,.,-6.5,-7.0,-0.2,-6.7,i
CC(C)CNC(=O)C1C2C=CC(C2)C1C(=O)O (stereo not given),24.4,-5.6,-2.2,3.8,6.2,0.2,-2.8,i
CN(C)CCCNC(=O)C1CCNCC1,0.4,-12.3,-9.1,11.1,-1.8,-3.4,-3.0,i
CCn1c(SCC(=O)N/N=C/c2ccccc2OCC(=O)O)nnc1-c1ccc(C(C)(C)C)cc1,12.0,14.5,-2.2,10.1,-0.6,2.9,2.0,i

# In the list so far, these contain a nitro group on carbon:
SMILES,HIV Env fusion,CSC inhib,UUG fidelity,PABP polyA inh,eIF4H inh,MT1-MMP act inh,MT1-MMP act inh RFP,Rce1 inhib
CSCCC(Nc1ccc(S(=O)(=O)N2CCOCC2)cc1[N+](=O)[O-])C(=O)OCC(=O)NCC(C)C (stereo not given),.,-7.6,.,1.8,-7.0,2.1,1.7,i
O=[N+]([O-])c1ccc(N=Nc2ncc[nH]2)cc1,-204.4,80.8*,-6.4,-10.0,-1.8,-17.4,7.3,i

# Results in MT1-MMP act inh RFP and MT1-MMP act inh, for some of the entries so far:
molecule | MT1-MMP act inh RFP | MT1-MMP act inh
COc1cccc(C2C3=C(N=C4SCC(=O)N42)c2ccccc2CC3)c1OC (stereo not given) | 3.1 | -6.3
CCOC(=O)[C@@H]1[C@H]2COc3cc(OC)ccc3[C@@H]2N2C(=O)N(c3ccc(OC)cc3)C(=O)[C@@]12C | 1.2 | -1.0
O=S(=O)(Nc1ccccc1Br)c1cccc2cccnc12 | -5.2 | -2.1
CC(=O)NC1(c2nnnn2CCOC(=O)Nc2ccc(Cl)cc2)CCCCC1 | -2.4 | 2.9

# Other entries.
SMILES,HIV Env fusion,CSC inhib,UUG fidelity,PABP polyA inh,eIF4H inh,MT1-MMP act inh,MT1-MMP act inh RFP,Rce1 inhib
Cc1ccc(-n2[nH]c(C)c(/C=N/n3c(C)nc4ccccc4c3=O)c2=O)cc1,.,27.3,-3.4,14.1,3.1,6.3,7.1,i
CCCn1c(N)c(Br)c(=O)[nH]c1=O,16.2,9.5,-12.6,2.2,-0.8,-3.3,-2.9,i
OC(c1ccccc1)c1ncc(-c2cccc(C(F)(F)F)c2)[nH]1 (stereo not given),1.8,.,-14.9,.,.,-2.1,-0.2,.
Cc1onc(-c2c(F)cccc2Cl)c1C(=O)N1C=CC(C(F)(F)Cl)=NCC1,-98.8,4.0,-14.1,-4.4,-10.1,-1.8,1.1,i
CC1CN(C2CCN(S(=O)(=O)c3ccc4ccccc4c3)CC2)CC(C)O1 (stereo not given),5.1,20.8,-0.5,-6.5,0.7,0.0,0.6,i
COc1ccc(C2(CNC(=O)c3ccccc3)CCCC2)cc1OC,1.9,-13.3,-9.3,12.3,6.8,0.1,2.9,i
C[C@]12CC[C@@H]3c4cc(O)c(O)cc4CC[C@H]3[C@@H]1CC[C@@H]2O,-1.3,54.5,-8.9,10.5,-5.7,6.5,-9.0,i
CN(C)S(=O)(=O)c1cccc(NC(=O)c2ccncc2)c1,8.3,1.6,-14.6,-10.2,-0.6,3.4,-3.5,i
CCSc1nnc(NC(=O)COc2ccc3ccccc3c2)s1,-3.8,-6.5,-10.1,-2.8,3.8,-6.0,-4.3,i
CSCCC(NS(=O)(=O)c1ccc2ccccc2c1)C(=O)OCC(=O)c1ccc(C(C)C)cc1 (stereo not given),.,-3.1,-6.7,4.5,-2.0,2.4,8.5,i
C=CCN(C(=O)CNC(=O)c1cccs1)C(C(=O)NC1CCCCC1)c1cccnc1 (stereo not given),1.3,.,-15.1,8.3,7.3,0.9,1.3,i
COc1ccccc1[C@@H]1C(c2ccccc2)=NN(c2ccc(Br)cc2)[C@H]1C(=O)N1CCOC1=O,5.1,.,5.4,.,.,4.1,1.5,.
COc1ccc2ccccc2c1CN1CCN(C)CC1,-43.5,6.3,-4.3,19.6,0.2,2.3,5.7,i
Cc1ccc(S(=O)(=O)N2CCC(C(=O)OC(C)C(=O)NCc3ccc4c(c3)OCO4)CC2)cc1 (stereo not given),-9.2,-11.3,-20.4,-5.5,-4.9,2.5,2.3,i
CCCCc1cc(=O)oc2c3c(cc(OCC(=O)NCCCO)c12)OC(C)(C)CC3,-11.2,-7.9,0.0,-6.1,-9.7,5.8,-0.4,i
Cn1c2c(c(=O)n(C)c1=O)C1c3cc(Cl)ccc3OCC1CO2 (stereo not given),.,-6.5,-23.9,7.4,5.1,0.7,1.5,i
COc1ccc(-n2c(-c3ccccc3)nnc2-c2ccc(Cl)cc2)cc1,-35.3,.,-11.3,-4.0,-5.1,-3.2,-4.2,i
COc1ccc(CCN2CC(C(=O)Nc3ccccc3F)CC2=O)cc1OC (stereo not given),-4.4,-17.1,-11.3,.,.,2.8,-2.5,i
Cn1c(-c2ccc(Cl)cc2)cnc1N,-23.7,31.9,-31.3,-0.9,8.6,20.3,16.2,i
CC(=O)[C@@H]1[C@@H](C)N(Cc2ccccc2)C(=O)N[C@H]1c1ccccc1,-28.4,-1.1,-2.3,.,.,-1.6,0.2,i
Cc1ccc(NC(=O)C2(C)CCN2C(=O)Cc2ccccc2Cl)cc1C (stereo not given),-5.8,.,2.3,.,.,-4.8,-2.1,.
COc1ccc(-n2c(SCC(=O)Nc3ccccc3OC)nc(O)cc2=O)cc1,0.0,.,5.7,0.9,-1.9,5.2,-0.5,i
O=C(CSc1nnc2c(Cl)cc(Cl)cn12)N1CCN(S(=O)(=O)c2ccccc2)CC1,-16.0,-13.3,-8.4,0.0,7.1,-2.3,3.5,i
CCN(C(=O)COC(=O)c1ccc(S(=O)(=O)N2CCCc3ccccc32)cc1)C1CCS(=O)(=O)C1 (stereo not given),7.4,-15.0,.,-0.1,-9.8,2.3,6.0,i
O=C(N/N=C/c1ccc(-c2ccc([N+](=O)[O-])cc2)o1)[C@H]1C[C@@H]1c1ccccc1,-31.5,0.9,.,30.6,40.4,-4.4,-7.7,i
